Calb biofilm kill = clotrimazole potentiators killing C. albicans biofilm, primary screen, 4-compound mixtures; C. albicans biofilm persisters + clotrimazole, fluorescence viability; primary screen in compound mixtures of four per well; inhibition, % at 7.6 µM; 0.02% of 120,000 active;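 active = inhibition above 30.3% in the primary screen of four-compound pools, then above 30% when the compound was retested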;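 also: compounds exposed to preformed 24 h biofilms for 48 h; the number belongs to the whole pool; some results filed as inactive read as strong as hits; inactives centre near 12; 0% = biofilm with clotrimazole alone and 100% = kill control; retested singly at about 60 µM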
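Incubation: 24 h biofilm formation, then 48 h compound exposure, 37 °C | Material: C. albicans biofilms | Buffer or medium: RPMI/MOPS medium, pH 7.0 | Measured by: 2-h Alamar Blue fluorescence, 535/590 nm excitation/emission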
An asterisk follows results filed as active. Not all compounds are listed; rates above refer to the full screens.

SMILES	Calb biofilm kill
O=[N+]([O-])c1ccc(/C([O-])=C(/C(=S)Nc2ccccc2F)[n+]2ccccc2)cc1	17
CCCCNC(=S)Nc1ccc(F)cc1	14
Cc1ccc(NCc2n[nH]c(=S)n2-c2ccccc2)cc1	12
Cc1nc2ccccn2c1C(=O)Nc1ccc2c(c1)OCCO2	21
CC(=O)Nc1ccc(S(=O)(=O)N2CCN(S(=O)(=O)N3CCCCC3)CC2)cc1	15
COc1ccc(C2=NN(C3=NN=C(N)Cc4ncnn43)C(O)(C(F)(F)F)C2)cc1 (stereo unspecified)	7
CCOC(=O)CCn1nc(-c2ccc(C)cc2)c2ccccc2c1=O	7
CC(C)OCCCNC(=O)c1cccc(NC(=O)c2ccccc2)c1	7
CCN(CC)c1ccc(C(=O)NN)cc1	5
COc1cccc(NC(=S)N2CCN(c3ccc([N+](=O)[O-])cc3)CC2)c1	2
Cc1ccccc1CCN(CC(=O)NC1CCCCC1)C(=O)c1csnn1	18
CCCCn1c(SCC(=O)N(C)C2CCS(=O)(=O)C2)nc2cc(S(N)(=O)=O)ccc21 (stereo unspecified)	5
O=C(Nc1nnc(C2CC2)s1)c1cc([N+](=O)[O-])ccc1N1CCCCC1	18
CC(C)(C)c1ccc(Oc2ccc(N)cc2)cc1	11
CC(C)C(=O)Nc1ccc(C(=O)Nc2nnc(C(C)C)s2)cc1	7
COc1ccc(C(=O)OCc2nc(N)nc(Nc3ccccc3C)n2)cc1OC	8
CCn1c(=S)sc2c(=O)n(-c3ccccc3)c(=S)[nH]c21	13
COc1cc(NC(=O)[C@@H](NC(=O)c2ccco2)C(C)C)c(OC)cc1NC(=O)c1ccccc1	8
O=C1c2cnc3ncnn3c2CC2c3ccccc3CCN12 (stereo unspecified)	11
CN(NC1OC(=O)c2ccccc21)c1c([N+](=O)[O-])cc(C(F)(F)F)cc1[N+](=O)[O-] (stereo unspecified)	7
CCCC[C@@H]1CNC(=S)N1CCCc1cc(OC)c(OC)c(OC)c1	22
COc1ccc(N/N=C(\C#N)C(=N)SCc2ccccc2)cc1	12
CCCn1c(SCC(=O)NCCc2ccccc2)nnc1C(C)C	10
COc1ccccc1NS(=O)(=O)c1cc(NC(=O)Nc2ccc(Cl)cc2Cl)ccc1N1CCCCC1	8
Cc1cccc(OCCSc2nncn2C)c1	-9

Next part.
SMILES	Calb biofilm kill
COc1ccc(N/N=C(/C#N)S(=O)(=O)C(C)(C)C)cc1	20
O=C(NCC1(c2ccccc2)CCCC1)C(=O)N1CCOCC1	10
O=C(CCN1C(=O)/C(=C/c2ccc3c(c2)OCO3)SC1=S)Nc1ccccc1	9
O=C(CSc1ccccn1)Nc1nc2c(ccc3ccccc32)s1	13
CN1CCN(C(=O)C2=C[C@H](c3ccccc3)C[C@H](OCc3ccc(CO)cc3)O2)CC1	17
Cc1cc(-c2n[nH]c(=S)n2/N=C/c2ccc(Br)s2)n[nH]1	0
CCOc1ccc(NC(=O)CSc2nnc(CNC(=O)c3ccco3)o2)cc1	8
COCCCn1c(SCC(=O)N2CCc3ccccc32)nnc1-c1ccco1	-4
CCOc1c(CNCc2ccc(C(=O)O)cc2)cccc1OC	10
O=C(CSc1ccccn1)Nc1nc2ccccc2s1	13
COC(=O)c1c(NC(=O)CSc2nc3ccccc3c(=O)n2Cc2ccco2)sc(C)c1C	15
CCOc1ccccc1NC(=S)NCc1cccn1C	15
O=C1/C(=C/c2ccccn2)SC(=S)N1NS(=O)(=O)c1ccccc1	22
Cc1cc(C)n(-c2ccc(C(=O)OCC(=O)Nc3ccccc3[N+](=O)[O-])cc2)n1	9
O=C(Nc1nnc(-c2ccccn2)o1)c1cccc(Cl)c1	1
O=C(O)CCSc1nnc(-c2ccccc2)n1-c1ccccc1	13
CCc1ccc(Nc2nnc(SCC(=O)c3ccc4c(c3)NC(=O)CO4)s2)cc1	10
CCOC(=O)c1c(NC(=O)CN2CCN(C(=O)c3ccco3)CC2)sc2c1CCCC2	4
CC(C)c1cc(C(=O)N2CCCC(CCC(=O)N3CCN(c4ccccn4)CC3)C2)no1 (stereo unspecified)	14
C=CCn1c(O)c(N=Nc2nc3ccccc3c(=O)n2-c2ccccc2)c2ccccc21	8
COc1cc(/C=C2/C(=O)NN(c3cccc(C)c3)C2=O)ccc1OC(=O)c1ccco1	16
Cc1ccc(Cl)cc1NC(=O)COC(=O)c1ccc(N2CCCC2)c([N+](=O)[O-])c1	16
CCCCC[n+]1ccn(C2=C([O-])c3ccccc3C(=O)/C2=N\S(=O)(=O)c2ccc(Cl)cc2)c1	35
CNC(=O)c1c(Cl)cnn1-c1ccc(F)cc1	13
CCOC(=O)N=Nc1c(O)n(C)c2ccccc12	7

New compounds follow
SMILES	Calb biofilm kill
COc1ccc(CCNC(=O)COC(=O)C23CC4CC(CC(C4)C2)C3)cc1	10
Nc1ccn(Cc2ccc(F)cc2)n1	-11
O=C(COC(=O)C12CC3CC(CC(O)(C3)C1)C2)NCCc1ccc(Cl)cc1	23
CCOC(=O)c1nc(C)n(-c2cc(OC)c(Cl)cc2Cl)n1	9
CCOC(=O)CSCC(=O)Nc1c(C(=O)C2CC2)oc2ccccc12	10
CN(CC(=O)N1CCN(c2ncccn2)CC1)S(=O)(=O)c1ccc(Cl)cc1	8
CC1(C)CC(N2CCCC2)=CC(=[N+]2CCCCC2)C1	10
C#CCOCCOCCOCCNc1nc(N2CCN(C(=O)[C@H](CCC(=O)O)n3cc(C(N)Cc4ccc(O)cc4)nn3)CC2)nc(N2CCN(C(=O)[C@H](CCC(=O)O)n3cc(C(N)[C@H](C)CC)nn3)CC2)n1 (stereo partly specified)	7
S=C(NCc1cccs1)Nc1cccc2ccccc12	7
Cc1c(C(=O)NCCSc2ccc(Cl)cc2)cccc1[N+](=O)[O-]	25
Cn1cnnc1SCC(=O)N1N=C(c2ccc(Cl)cc2)CC1c1ccco1 (stereo unspecified)	13
O=C(OCC(=O)N1CCN(C(=O)c2ccco2)CC1)c1cccc(S(=O)(=O)N2CCc3ccccc32)c1	6
Cc1ccc(C2=NOC3(CC(=O)N(c4ccccc4)C3=O)C2)cc1 (stereo unspecified)	16
O=C(COC(=O)CN1C(=O)C(=O)c2ccccc21)OCN1C(=O)c2ccccc2C1=O	8
COCCOc1cc(NC(=O)CS(=O)(=O)CC(=O)N(C)C)c(Cl)cc1Cl	12
O=C(NC1CCCCC1)c1ccc(-n2cnnn2)cc1	-5
Cc1ccc(C)c(NC(=S)NCCc2ccc(F)cc2)c1	9
CCCCCC(=O)Nc1cccc(C2=NOC3(C2)C[C@H](C(N)=O)N(C(=O)COc2ccc(Cl)cc2)C3)c1 (stereo partly specified)	11
C=CCNC(=O)C1CC2Cn3c(nc4cc5ccccc5cc43)C2N1C (stereo unspecified)	12
Cc1nn(CC(=O)NNC(=O)c2ccccc2F)c([N+](=O)[O-])c1Br	11
O=C(Nn1cnc2ccccc2c1=O)c1ccc([N+](=O)[O-])cc1Cl	17
CCCNC(=O)OC[C@H]1O[C@H](CCO/N=C/[C@@H](NS(=O)(=O)c2ccc(C)cc2)[C@H](C)/C=C/CC(=O)OC)C=C[C@@H]1Oc1ccc(OC)cc1	-1
COc1ccc(-c2nn(-c3ccccc3)cc2/C=N/NC(=O)c2cccc(S(=O)(=O)Nc3ccccc3Cl)c2)cc1	12
O=C(CN1CCN(S(=O)(=O)c2ccccc2)CC1)Nc1ccc2c(c1)CCC2	7
CCCNC(=O)NC(=O)COC(=O)CC(NC(N)=O)c1ccc(Cl)cc1 (stereo unspecified)	9

(further entries)
SMILES	Calb biofilm kill
O=C(Nc1ccc(Cl)cc1)N1CCN(Cc2ccc3c(c2)OCO3)CC1	7
Nc1nnc(CC(=O)N/N=C/c2ccc(-c3ccccc3)o2)s1	18
COc1ccc(C2CC(=O)c3cnc(N4CCc5ccccc54)nc3C2)c(OC)c1 (stereo unspecified)	21
CNC(=S)Nc1ccc([N+](=O)[O-])c(C)c1	3
COc1ccc(NC(=O)Nc2cccnc2)cc1	9
Cc1ccc(C2Nc3ccccc3NC3=C2C(=O)OC(C)C3)cc1 (stereo unspecified)	5
Cc1ccc(C(CCNC(C)c2cccs2)c2ccco2)cc1 (stereo unspecified)	23
COc1ccc(/C=N/Nc2nncc3ccccc23)c(OC)c1	18
CCN(CC)CC(=O)Nc1cccc(S(=O)(=O)N2CCCC2)c1	12
Cc1ccc(N2C(=O)C(NC(=O)c3ccccc3)(C(F)(F)F)C3=C2CC(C)(C)CC3=O)cc1 (stereo unspecified)	-2
Cc1cccc(NC(=S)NCC(c2cccnc2)N2CCOCC2)c1C (stereo unspecified)	6
Cc1ccc(-n2cnc3ncnc(-c4ccccc4)c32)cc1	2
CS(=O)(=O)n1nc(NCc2cccs2)nc1NCc1cccs1	13
COC(=O)C1=CN(CCOC23CC4CC(CC(C4)C2)C3)C=C(C(=O)OC)C1c1ccsc1	2
O=C(CN1CCOCC1)Nc1nc2cc([N+](=O)[O-])ccc2s1	11
COC(=O)/C=C1/S/C(=N/NC(=O)c2ccc(Cl)cc2Cl)NC1=O	25
O=C(CCN1C(=O)c2cccc3cccc(c23)C1=O)NC1CCS(=O)(=O)C1 (stereo unspecified)	3
Cc1nc2cc(Nc3ccncc3)ccc2s1	20
O=c1cc(-c2ccccc2[N+](=O)[O-])oc2ccccc12	7
CCc1ccc(C(=O)OCC(=O)Nc2cccc(S(=O)(=O)NC3=NCCCCC3)c2)cc1	10
O=C(NCc1ccc(Cl)cc1)C1CCN(S(=O)(=O)c2cc([N+](=O)[O-])ccc2Cl)CC1	-2
OC1(c2ccccc2)c2ccccc2-c2ncccc21 (stereo unspecified)	18
CC1CCc2c(nc3ncnn3c2NCCN(C)C)C1 (stereo unspecified)	16
CC(C)CCn1nnnc1CN1CCN(C(c2ccccc2)c2ccccc2)CC1	1
CCOC(=O)Nc1ccc2c(c1)nc(CN1CCCCC1)n2C	8

Part of the list above in order of heavy-atom count, ascending:
SMILES	Calb biofilm kill
CNC(=S)Nc1ccc([N+](=O)[O-])c(C)c1	3
Cc1nc2cc(Nc3ccncc3)ccc2s1	20
COc1ccc(NC(=O)Nc2cccnc2)cc1	9
O=c1cc(-c2ccccc2[N+](=O)[O-])oc2ccccc12	7
Cc1ccc(-n2cnc3ncnc(-c4ccccc4)c32)cc1	2
CCN(CC)CC(=O)Nc1cccc(S(=O)(=O)N2CCCC2)c1	12
Cc1ccc(C2Nc3ccccc3NC3=C2C(=O)OC(C)C3)cc1 (stereo unspecified)	5
Cc1cccc(NC(=S)NCC(c2cccnc2)N2CCOCC2)c1C (stereo unspecified)	6
O=C(CCN1C(=O)c2cccc3cccc(c23)C1=O)NC1CCS(=O)(=O)C1 (stereo unspecified)	3
O=C(NCc1ccc(Cl)cc1)C1CCN(S(=O)(=O)c2cc([N+](=O)[O-])ccc2Cl)CC1	-2
COC(=O)C1=CN(CCOC23CC4CC(CC(C4)C2)C3)C=C(C(=O)OC)C1c1ccsc1	2
Cc1ccc(N2C(=O)C(NC(=O)c3ccccc3)(C(F)(F)F)C3=C2CC(C)(C)CC3=O)cc1 (stereo unspecified)	-2

Next part.
SMILES	Calb biofilm kill
CCn1cc(C(=O)O)c(=O)c2cnc(N3CCN(C(=S)Nc4ccccc4)CC3)nc21	17
Nc1cccc2c1C(=O)N(Cc1cccc(Cl)c1)C2=O	22
Cc1cc(S(=O)(=O)Cc2noc(-c3c(C)noc3C)n2)c(C)cc1Cl	13
CC1CCc2c(cnc3ncnn23)C1 (stereo unspecified)	14
CC1=NN(c2ccc(C)c(C)c2)C(=O)/C1=C\C=C\c1ccc([N+](=O)[O-])o1	4
O=c1oc2cccnc2n1CCS(=O)(=O)c1ccc(F)cc1	19
Cc1ccc(S(=O)(=O)N(CC(=O)NCc2cccnc2)C2CCCCC2)cc1	12
CC(=O)c1c(-c2ccccc2)c2ccccc2[nH]c1=O	7
Cc1cc(NC(=S)N(CCN2CCOCC2)Cc2ccccc2F)ccc1Cl	13
CC(C)(C)NC(=O)Cn1cnc2cc([N+](=O)[O-])ccc2c1=O	0
Cc1cccc(C)c1NC(=S)NC(=O)c1ccccc1F	5
Cc1cc(C(=O)OCC(=O)Nc2cccc(S(=O)(=O)N(C)C)c2)c2ccccc2n1	12
COc1ccc(C(=O)NNC(=O)OC(C)(C)C)cc1	20
CCOC(=O)c1sc(NC(=O)c2ccco2)c(C#N)c1C	17
CC(C)(c1ccccc1)c1ccc(OCC(O)CNC2CCN(Cc3ccccc3)CC2)cc1 (stereo unspecified)	0
O=C(c1cccc(OC2CCN(C3CCCC3)CC2)c1)N1CCCCCCC1	25
CCC(C)(C)NC(=O)/C=C/c1ccccc1[N+](=O)[O-]	4
O=C(NCc1ccc[n+](CCCCS(=O)(=O)[O-])c1)c1ccc(OC(F)F)cc1	14
O=C(NCCCn1ccnc1)C(=O)NC1CCCCC1	29
CCN(CC)S(=O)(=O)c1cc(C)ccc1NC(=S)Nc1cccnc1	16
O=C(Cn1cncn1)c1ccccc1	22
Cc1cccc(CC(=O)N2CCC(N3CCC(C(=O)N4CCOCC4)CC3)CC2)c1	-2
Cc1cccc(N(C(=O)Nc2ccc(Cl)cc2)C2=NCC(C)S2)n1 (stereo unspecified)	10
COc1ccc(NC(=O)CCSc2ccc(F)cc2)cc1	10
COc1ccc(S(N)(=O)=O)cc1C(N)=O	9
CCN(c1ccccc1)S(=O)(=O)c1ccc(OC)c(NC(=O)CNC)c1	3
Cc1nnc(-c2ccccc2)o1	17
COC(=O)c1c(NC(=O)CN2C(=O)NC(CCc3ccccc3)C2=O)sc2c1CCCCC2 (stereo unspecified)	11
CC(C)(C)c1ccc(C(=O)Nc2nnc(Cc3c[nH]c4ccccc34)s2)cc1	-17

Screening results from PubChem BioAssay.
